Source: PubChem BioAssay (Johns Hopkins Ion Channel Center)
KCNQ2 block = KCNQ2 channel blockers in CHO-K1 cells – cell-based, FluxOR thallium flux, B-score, primary screen (AID 2156); 310,000 tested, 1.1% active; B-score at 10 µM; O88943; 20 min; hits give low values; only compounds with negative scores are shown here; some inactives read as strong as hits;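 active = fluorescence ratio B-score at most minus 3 library SDs, with starting brightness B-score within 2 library SDs, cut at about -5.5 in these data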
Target sequence (O88943 whole entry, looked up): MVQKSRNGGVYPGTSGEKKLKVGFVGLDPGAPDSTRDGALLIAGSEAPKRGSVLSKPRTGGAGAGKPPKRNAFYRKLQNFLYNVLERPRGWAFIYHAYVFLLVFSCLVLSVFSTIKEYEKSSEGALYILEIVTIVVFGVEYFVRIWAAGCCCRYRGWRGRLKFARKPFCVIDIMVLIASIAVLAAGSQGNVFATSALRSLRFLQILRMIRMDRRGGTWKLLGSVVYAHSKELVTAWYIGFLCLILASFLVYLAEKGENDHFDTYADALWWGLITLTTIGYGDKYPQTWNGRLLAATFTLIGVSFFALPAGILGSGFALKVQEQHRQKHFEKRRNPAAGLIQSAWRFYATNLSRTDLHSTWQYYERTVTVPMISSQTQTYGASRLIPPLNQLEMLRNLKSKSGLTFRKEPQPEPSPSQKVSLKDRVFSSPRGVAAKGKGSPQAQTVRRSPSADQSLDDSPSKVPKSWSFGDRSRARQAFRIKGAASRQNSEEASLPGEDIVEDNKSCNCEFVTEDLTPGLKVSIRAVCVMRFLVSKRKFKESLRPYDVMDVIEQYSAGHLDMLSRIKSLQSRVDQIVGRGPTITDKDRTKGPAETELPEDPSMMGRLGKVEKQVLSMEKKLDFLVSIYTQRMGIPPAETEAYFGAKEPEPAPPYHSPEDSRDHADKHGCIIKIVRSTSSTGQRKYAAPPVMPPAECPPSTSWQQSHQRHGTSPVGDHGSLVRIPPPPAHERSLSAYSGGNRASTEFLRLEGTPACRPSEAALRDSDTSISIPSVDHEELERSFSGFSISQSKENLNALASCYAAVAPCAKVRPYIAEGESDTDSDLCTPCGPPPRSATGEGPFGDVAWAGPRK
KCNQ2 block baseline = second read-out of KCNQ2 block, no call of its own (marks repeat the call); B-score; measured here: initial fluorescence intensity artifact check;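 brightness before thallium and not channel activity; 0 = typical well and far values either way flag optical interference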
* = called active by the depositor; i = inactive; & = joins results of further samples. Not all compounds are listed, so the mix of outcomes need not match the whole.

Second line of a record: KCNQ2 block	KCNQ2 block baseline
- Cc1cc2c(n1-c1ccc(Br)cc1)CC(C)(C)CC2=O
  i	-1.16
- CCCCC1(C(=O)OCC)CC(CSC(=N)N)OC1=O (configuration not stated)
  i	0.13
- CCOc1ccc(-n2c(Cc3cc(=O)[nH]c(=O)[nH]3)nnc2SCC)cc1
  i	-0.29
- COc1ccc(Cc2nnc(Nc3ccc(C)cc3C)[nH]c2=O)cc1
  i	-1.64
- O=C(NCc1cc(C(F)(F)F)cc(C(F)(F)F)c1)C1CC(c2c(Cl)cccc2Cl)=NO1 (configuration not stated)
  i	0.73
- CN1CCN(C(=O)c2ccc(CN3CCOCC3)cc2)CC1
  i	0.42
- CCOC(=O)c1c(C)nc2c(c1-c1cc(OC)c(OC)c(OC)c1)C(=O)c1ccccc1-2
  i	5.01
- Cc1nn(-c2ncc(C(F)(F)F)cc2Cl)c(=O)n1-c1ccccc1Cl
  i	-0.81
- C#CCOc1ccccc1CNC1CCN(Cc2ccccc2)CC1
  i	-1.5
- O=C(Cn1nc2n(c1=O)-c1ccccc1SC2)N/N=C/c1cccnc1
  i	2.41
- C1CSC2(N1)C1CC3CC2CC(C1)C31NCCS1 (configuration not stated)
  i	-0.58
- COc1cc(C(=O)N/N=C/c2cc([N+](=O)[O-])cs2)cc(OC)c1OC
  i	1.52
- CC(C)c1ccc(OCC(=O)N(Cc2ccco2)C2CCS(=O)(=O)C2)cc1 (configuration not stated)
  i	1.26
- Cc1cccc(NC(=O)c2ccc(S(=O)(=O)N3CCOCC3)cc2)n1
  i	1.34
- CN(Cc1ccccc1)C(=O)c1[nH]cnc1C(=O)N[C@@H](Cc1ccccc1)C(=O)OCc1ccccc1
  i	-0.54
- CCOc1ccc(CC(=O)NCC(=O)NCc2cc(=O)n(C)c(=O)n2C)cc1
  i	0.01
- COc1ccc(CNC(=O)c2ccc(C(C)C)cc2)cc1
  i	-0.73
- CCOC(=O)c1cnc(SCCN2CCOCC2)nc1N
  i	0.41
- COc1ccc(NC(=O)CSc2nnc(Cn3cnc4ccccc43)n2C)cc1
  i	0.39
- CCOc1cc(N2CCOCC2)c(OCC)cc1NC(=O)COC(=O)c1cc2ccccc2cc1O
  i	0.64
- COc1ccc(CCCC(=O)NCc2ccccc2)cc1C
  i	-0.95
- Cc1nn(-c2ccccc2)c(N2CCCC2)c1/C=N/NC(=O)c1cc(-c2cccnc2)nc2ccccc12
  i	-1.79
- COC(=O)c1ccc(C(NC(=O)OCc2ccccc2)/C(C)=C/[C@@H](C)C(=O)NCc2ccc(OC)c(OC)c2)cc1 (some centres not stated)
  i	0.69
- COc1ccccc1N1C(=O)C2C(C(=O)c3ccccc3)=NN(c3ccc(C)cc3)C2C1=O (configuration not stated)
  i	-0.66
- CC1CN=C2C(C(=O)Nc3ccccc3)=C(O)CC(c3ccccc3)N21 (configuration not stated)
  i	-0.26
- Cc1c(Nc2nc(-c3cccc([N+](=O)[O-])c3)cs2)c(=O)n(-c2ccccc2)n1C
  i	-2.07
- Cc1sc2c(c1C)c(=O)n(-c1ccc(Cl)cc1)c(=O)n2Cc1cc(=O)n2ccccc2n1
  i	0.37
- C=CCn1c(CNC(=O)c2ccccc2F)nnc1SCc1nc2ccccc2c(=O)[nH]1
  i	-0.11
- Cc1nc(-c2cc(-c3nc(-c4ccc(C(F)(F)F)cc4)no3)no2)cs1
  i	0.99
- COc1cccc(CNCc2ccc(SC)cc2)c1OC
  i	-1.52

Next part:
Second line of a record: KCNQ2 block	KCNQ2 block baseline
- COC(=O)c1cc2c(ccn2-c2ccc(F)cc2)n1CC(=O)OC(C)C
  i	-0.07
- COc1cccc(-c2cc(C(=O)N3CCCCC3C)no2)c1 (configuration not stated)
  i	0.1
- Cc1[nH]c(=O)[nH]c(=O)c1S(=O)(=O)NCC12CC3CC(CC(C3)C1)C2
  i	0.82
- COc1cccc(-n2c(SCC(=O)NCC3CCCO3)nc3c([nH]c4ccccc43)c2=O)c1 (configuration not stated)
  i	-0.38
- O=C(Oc1c(-c2ccccc2)oc2ccccc2c1=O)c1ccccc1
  i	-1.1
- O=C(Nc1ccccc1Cl)c1ccccc1Cl
  i	-0.16
- COc1ccc2[nH]c3c(=O)n(Cc4ccc(C(=O)N5CCC(C(N)=O)CC5)cc4)c(=S)[nH]c3c2c1
  i	-1.21
- Cc1ccc2c(c1)c(=O)c(Br)c(C)n2Cc1ccccc1
  i	-0.09
- Cc1oc2c(cc(NS(=O)(=O)c3ccc(F)cc3)c3ccccc32)c1C(=O)O
  i	0.89
- Cc1cc(=S)c2cccc(C)c2[nH]1
  i	-0.04
- Cc1[nH]nc2c1C(c1ccc(Cl)cc1)C(C#N)=C(N)O2 (configuration not stated)
  i	1.03
- CSc1ccc(/C=N/N2CCN(Cc3ccccc3)CC2)cc1
  i	0.74
- CC(Oc1ccccc1)C(=O)Nc1ccc(NC(=O)c2ccccc2)cc1 (configuration not stated)
  i	-0.16
- Cc1ccc(C(=O)OCC(=O)Nc2cc(F)ccc2F)cc1NC(=O)c1ccco1
  i	0.07
- Cc1cccc2sc(N(CCN(C)C)C(=O)c3ccc4ccccc4c3)nc12
  i	3.62
- Cc1cc(Br)ccc1SCC(=O)OC/C(O)=C(\C#N)c1nc2ccccc2[nH]1
  i	-0.12
- CC1CCN(C(=O)C2CCN(S(=O)(=O)c3ccc4c(c3)CC(C)N4C(=O)C3CC3)CC2)CC1 (configuration not stated)
  i	1.69
- COc1ccc(CCc2nnc(CCC(=O)NCc3cnn(-c4ccccc4C)c3)o2)cc1
  i	0.21
- C=CCn1c(SCC(=O)Nc2ccc3c(c2)OCO3)nnc1-c1ccccc1OC
  i	1.07
- COC(=O)c1ccc(CNC(=O)C(NC(=O)c2ccco2)C(C)C)cc1 (configuration not stated)
  i	-1.85
- Cc1ccccc1-c1nc2ccccc2c(=O)n1/N=C/c1ccccc1[N+](=O)[O-]
  i	-0.22
- CCN(C(=O)CCc1ccccc1)C1CCCCC1
  i	1.56
- COCCN1C=C2C(=O)C(C)(OC(=O)CCC(=O)OC)C(=O)C=C2C=C1C1CC1 (configuration not stated)
  i	0.24
- CCC1CCC(c2nnc(-c3ccc(Br)cc3)o2)CC1 (configuration not stated)
  i	0.43
- COc1c(Cl)cc(Cl)cc1CNCc1ccccc1
  i	0.2
- CCOC(=O)NC(CC(=O)O)c1ccc(OC)cc1 (configuration not stated)
  i	0.04
- Cc1ccccc1N1C(=O)C(Cl)=C(N2CCCCCC2)C1=O
  i	-0.76
- Cc1ccc(C(=O)C2Oc3ccccc3C3CC(c4ccc(C)cc4)=NN23)cc1 (configuration not stated)
  i	-2.29
- CCOC(=O)c1sc(-c2ccc(F)cc2)cc1NC(=O)Nc1ccccc1OC
  i	-0.38
- COc1cccc(CN2CCNC(=O)C2CC(=O)NCC(C)(C)N2CCOCC2)c1OC (configuration not stated)
  i	1.02

(listing goes on)
Second line of a record: KCNQ2 block	KCNQ2 block baseline
- CC(=O)N=c1ncn(CC(COC(C)=O)OC(C)=O)c2nc[nH]c12 (configuration not stated)
  i	1.42
- Cc1ccc(C)c(N2N=C(C(=O)Nc3ccccc3N3CCCC3)CCC2=O)c1
  i	-1.1
- CN(CCNC(=O)CCNC(=O)Cn1ccc2ccccc2c1=O)Cc1ccccc1
  i	-0.28
- Cc1ccc(SCCC(=O)OCC(=O)Nc2ccc(S(N)(=O)=O)cc2)cc1
  i	0.01
- CC(C)(C)OC(=O)N1CCC[C@H]1C(=O)Nc1ccc(Br)cc1
  i	-1.74
- C[n+]1cccc(/C=N/Nc2nc(Cl)c(C#N)c(Cl)c2Cl)c1
  i	1.18
- Cc1cc2ccccc2n1CCNC(=O)c1cccs1
  i	0.56
- Cc1cc(N/N=C/c2ccc(O)cc2O)c2ccccc2n1
  i	1.46
- Cc1ccc(NC(=O)COC(=O)Cn2c(C)csc2=O)c([N+](=O)[O-])c1
  i	0.37
- CCCCN1C(=O)NC(NS(=O)(=O)c2ccc(N)cc2)(C(F)(F)F)C1=O (configuration not stated)
  i	1.79
- CC1CCN(S(=O)(=O)c2cccc(C(=O)Oc3ccc([N+](=O)[O-])cc3)c2)CC1
  i	0.99
- Cc1cccc(NC(=O)CC2c3ccccc3Oc3ccccc32)c1
  i	0.76
- Cc1c(/C=N/O)sc2ccccc12
  i	-0.2
- NC(=O)NNC1=Nc2cccc3cccc1c23
  i	1.12
- CCOC(=O)N1CCN(C(=O)CSCC(=O)Nc2nc(-c3cccs3)cs2)CC1
  i	-0.54
- O=C(O)CSc1nc(C(F)(F)F)cc(=O)n1-c1ccccc1
  i	-0.43
- COc1ccc(CCNC(=O)CSc2nc3ccccc3o2)cc1OC
  i	-1.58
- CC(C)Cc1nc(C(N)=O)c2[nH]c(=O)n(-c3ccc(F)cc3)c2n1
  i	0.59
- CCCN(Cc1ccc(N(CC)CC)cc1)CC1CC1
  i	0.84
- COc1ccc(CCNC(=O)CSc2nc3[nH]ncc3c(=O)[nH]2)cc1OC
  i	-2.1
- CCC(C)NS(=O)(=O)c1ccc(S(=O)(=O)N2CCCC3(CCCCC3)C2)cc1 (configuration not stated)
  i	0.42
- CN1C2CC(OC(=O)C(CO)c3ccccc3)CC1C1OC12 (configuration not stated)
  i	1.27&-2.98
- O=C(N/N=C/c1ccccn1)C12CC3CC(CC(C3)C1)C2
  i	0.2
- Cc1nccn1CC(=O)N/N=C/c1cc(Br)cs1
  i	0.04
- O=C(CSc1nnc(-c2ccccc2)o1)N1CCc2ccccc2C1
  i	-0.73
- CC(=O)Nc1ccccc1OCc1nnc(-c2ccccc2Cl)o1
  i	-0.01
- CCOC(=O)c1c(NC(=O)CSc2nnnn2C)sc(C)c1-c1ccc(C)cc1
  i	0.32
- O=c1c(F)cn(C2CCCO2)c(=O)n1Cc1c(Cl)cccc1Cl (configuration not stated)
  i	1.07
- Cc1cnc(C(=O)OCC(=O)NC2CCCCCCC2)cn1
  i	0.2
- CCOC(=O)Cc1csc(NC(=O)C(C)c2ccc([N+](=O)[O-])cc2)n1 (configuration not stated)
  i	-1.64

Continued:
Second line of a record: KCNQ2 block	KCNQ2 block baseline
- COc1ccc2cc(CN(Cc3cccnc3)S(=O)(=O)c3ccccc3)c(=O)[nH]c2c1
  i	-1.84
- Cc1c(OC(C)C(=O)NCC2CCC(C(=O)O)CC2)ccc2c3c(c(=O)oc12)CCCC3 (configuration not stated)
  i	0.87
- COc1ccc(S(=O)(=O)N2CCN(Cc3ccccc3)CC2)c(C)c1
  i	-0.3
- CC(=O)Nc1ccc(S(=O)(=O)Nc2nc3ccccc3nc2Nc2ccc(O)c(C(=O)O)c2)cc1
  i	0.78
- FC(F)Oc1ccc(NC(=S)NC2CCCCCCC2)cc1
  i	-1.15
- CCCCOc1ccc(C(=O)NCCc2ccccc2)cc1
  i	1.59
- O=C(CN1CCN(S(=O)(=O)/C=C/c2ccccc2)CC1)Nc1ccccc1N1CCOCC1
  i	-0.66
- Cc1ccc(CNC(=O)C2CC(c3ccccc3F)=NO2)cc1 (configuration not stated)
  i	0.01
- CCOC(=O)c1c(NC(=O)CSc2nnc(C)s2)sc2c1CCN(C)C2
  i	1.87
- COc1ccc(CCNC(=O)c2cccnc2)cc1
  i	-0.6
- CN(CC(=O)NCCCc1ccccc1)Cc1ccc(Br)cc1
  i	-0.55
- O=C1/C(=C\c2c(NCCOCCO)nc3ccccn3c2=O)SC(=S)N1Cc1ccco1
  i	0.41
- Cc1cccc(Nc2ccccc2C(=O)NCc2ccco2)c1C
  i	-0.26
- O=C(Nc1sc2c(c1C(=O)N1CCOCC1)CCCCC2)c1cccnc1
  i	-0.06
- O=C(CSc1ncn[nH]1)Nc1ncc(C(F)(F)F)cc1Cl
  i	-0.25
- Cc1cccc(C)c1NC(=O)C1(N(C(=O)c2ccccn2)c2ccc(O)cc2)CCCCC1
  i	-1.4
- Oc1ccc(-c2n[nH]c(C(F)(F)F)c2-c2ccccc2)c(O)c1
  i	-2.62
- COc1ccc(NC(=O)c2cc(-c3ccccc3)on2)cc1OC
  i	0.41
- COc1ccc2c(c1)CC/C(=C/c1ccco1)C2=O
  i	-0.09
- Cc1cccc(Oc2cc(N)cc([N+](=O)[O-])c2)c1
  i	2.11
- COC(=O)C1=C(C)Nc2ncnn2C1c1ccccn1 (configuration not stated)
  i	0.77
- Cc1cccnc1CN1CCN(C(=O)CCc2nnc(CCc3ccccc3)o2)CC1
  i	-0.95
- COc1cccc(OC)c1C(=O)NCCSC1CCCCC1
  i	0.69
- C/C(=N/NC(=O)c1ccc(Br)o1)c1cccc(NC(=O)c2ccc(F)cc2)c1
  i	-1.79
- CCc1nc(N2CCC3(CC2)OCCO3)c2nnn(Cc3ccccc3Cl)c2n1
  i	-1.39
- COc1ccc(Cn2nnnc2CN2CCc3ccccc3C2)cc1
  i	0.9
- O=C(CCNC(=O)c1ccco1)Nc1cccc(Br)c1
  i	-0.45
- COc1cc2c(cc1OC)-c1cc3ccc4c(c3c[n+]1CC2)OCO4
  i	14.6
- CCS(=O)(=O)N1CCC(C(=O)Nc2cc([N+](=O)[O-])ccc2C)CC1
  i	2.47
- O=[N+]([O-])c1ccc(O)c(/C=N/Nc2nn[nH]n2)c1
  i	-0.23
- O=c1c(Cc2c(F)cccc2Cl)c(O)ccn1CCCn1ccnc1
  i	0.06

Five consecutive records already listed:
Second line of a record: KCNQ2 block	KCNQ2 block baseline
- COc1ccc2cc(CN(Cc3cccnc3)S(=O)(=O)c3ccccc3)c(=O)[nH]c2c1
  i	-1.84
- Cc1c(OC(C)C(=O)NCC2CCC(C(=O)O)CC2)ccc2c3c(c(=O)oc12)CCCC3 (configuration not stated)
  i	0.87
- COc1ccc(S(=O)(=O)N2CCN(Cc3ccccc3)CC2)c(C)c1
  i	-0.3
- CC(=O)Nc1ccc(S(=O)(=O)Nc2nc3ccccc3nc2Nc2ccc(O)c(C(=O)O)c2)cc1
  i	0.78
- FC(F)Oc1ccc(NC(=S)NC2CCCCCCC2)cc1
  i	-1.15
